From PubChem
VACV Venus inh = inhibitors of vaccinia virus (Venus reporter) | AID 720580 | Vaccinia virus Venus reporter expression, fluorescence | hit rate 0.46% among 330,000 | Potency, µM (highest dose often 36.5 µM), without a hit: top-dose activity change, negative = inhibition, actives largely listed as inhibitors; active means well fitted inhibition curve with a large enough effect; inconclusive means small, poorly fitted or top-dose-only effect; inactive means no such curve, though single readings can be large or run the other way; tested in A549 cells; further: nearly all actives have a fitted effect of over 30% in size; inactives centre near -10
VACV mCherry inh = inhibitors of vaccinia virus infection (mCherry reporter signal); Potency, µM (highest dose often 36.5 µM), for the others: at the top dose activity change, negative = inhibition, most hits filed as inhibitors; Vaccinia virus mCherry reporter infection, fluorescence; about a quarter of the inactives have no number; AID 720579; hit rate 0.63% among 310,000; active = well fitted inhibition curve with a large enough effect; inconclusive = small, poorly fitted or top-dose-only effect; inactive = no such curve, though single readings can be large or run the other way; tested in A549 cells; further: nearly all actives have a fitted effect of over 35% in size; inactives centre near -10
* = called active by the depositor; i = inactive; ? = inconclusive; / = not tested or not shown; & = joins results of further samples; [ ] = remark or other dose. On the % scale 0 is the no-effect control and ±100 the full control effect; potency means the concentration at half of the fitted maximal effect. Compounds as they come; 0.82% or so of the library scored in one or more.

structure,VACV Venus inh,VACV mCherry inh
Cc1ccc(C)c(S(=O)(=O)n2nc(C)c(S(=O)(=O)N3CCCCCC3)c2C)c1,-4%,16%
CN(C)c1ccc(C(C(=O)NC2CCCC2)N(C(=O)c2ccco2)C2CC2)cc1 (stereo not given),-1%,-3%
O=C(CN1C(=O)C2C3C=CC(C3)C2C1=O)NCCC1=CCCCC1 (stereo not given),?,/
CCn1ncc(CN2CCN(Cc3ccc(OC)c(C)c3C)C(CCO)C2)c1C (stereo not given),-17%,i
CCOC(=O)C1=C(c2ccccc2)OC(N)=C(C#N)C1c1ccc(Cl)s1 (stereo not given),-1%,-7%
COc1ccc(CCNC(=O)CN(c2ccccc2)S(=O)(=O)N(C)C)cc1OC,-4%,-1%
C/C(N)=C(/C#N)C(=O)CSc1n[nH]c(-c2ccccc2Br)n1,-14%&-8%,-13%&-17%
NC(=O)COC(=O)c1ccc(-c2ccccc2)cc1,-4%,i
O=C(NCc1ccc(Cl)c(Cl)c1)c1ccco1,-20%,-12%[1.46 µM]
N#CCSc1nnc(COc2cccc3ccccc23)n1-c1cccc(Cl)c1,?,?
CC(NC(=O)C(c1ccccc1)c1ccccc1)c1ccccc1 (stereo not given),-7%,i
CN(C)S(=O)(=O)c1ccc2c(c1)N(CC(=O)Nc1ccc(F)cc1)C(=O)CS2,9%,-10%
CCOc1ccc(OCC)c(NC(=O)Cn2cccc2)c1,-10%,-17%
Cn1c(-c2ccc(F)cc2)cnc1SCC(=O)N1CCCc2ccccc21,-22%,-24%
O=C1C(=O)N(c2ccccc2)P(=O)(N(CCCl)CCCl)N1c1ccccc1,2%,-9%
COc1ccc(SCCCn2c(=O)c3c(ncn3C)n(C)c2=O)cc1,-17%,i
Cc1ccc(C(=O)Nc2ccc(C(F)(F)F)n(C)c2=O)cc1,-4%,-16%
Cc1ccc(-n2ncc(-c3n[nH]c(=S)o3)c2N)cc1C,-14%,-2%
S=c1[nH]nc(-c2cc(-c3ccccc3)n[nH]2)n1/N=C/c1ccc(Cl)c(Cl)c1,-10%,i
CCC(c1nnc(SCC(=O)Nc2ccc(S(N)(=O)=O)cc2)n1Cc1ccccc1)N(C)C (stereo not given),-9%,i
S=C(Nc1cccnc1)Nc1ccccn1,-14%,i
Cc1nnc(NC(=O)C(C)Sc2nncn2C)s1 (stereo not given),-6%,i
CCN(CC)CCOC(=O)C1(c2ccccc2)CCOCC1,-2%,-6%
CCOC(=O)c1ccc(-n2c(N)c(C(=O)OC)c3nc4ccccc4nc32)cc1,-7%,-16%

Look-ups from above:
Reading of `CCN(CC)CCOC(=O)C1(c2ccccc2)CCOCC1` under VACV Venus inh: -2%
Reading of `S=C(Nc1cccnc1)Nc1ccccn1` under VACV Venus inh: -14%
Reading of `S=c1[nH]nc(-c2cc(-c3ccccc3)n[nH]2)n1/N=C/c1ccc(Cl)c(Cl)c1` under VACV Venus inh: -10%

Continuation:
structure,VACV Venus inh,VACV mCherry inh
Cn1c(SCc2nc(-c3ccc(Cl)cc3)no2)nnc1-c1ccco1,-5%,i
CCOc1ccc(NC(=O)CCn2nc(C)c(S(=O)(=O)N3CCCCC3)c2C)cc1,-4%&-12%,-22%
CC(C)C[C@H]1CN([C@@H](CC(C)C)CN2CCC[C@H]2CN2C(=O)C(=O)NC[C@@H]2Cc2ccccc2)C(=O)C(=O)N1CCc1ccccc1,-27%,-19%
COc1ccc2c(c1)[nH]c1c(=O)n(Cc3ccco3)cnc12,-21%,-14%
Cc1n[nH]c(C)c1S(=O)(=O)N1CCN(S(=O)(=O)c2cccc(F)c2)CC1,-16%,-26%
COc1ccccc1CNC(=O)c1ccccc1SCC(=O)NCc1ccco1,-19%,0%
Cc1c(C(=O)OCC(C)C)[nH]c2c1C(=O)CC(c1ccco1)C2 (stereo not given),?,?
CC(C)c1ccc(/C=N/n2nnnc2Nc2ccccc2)cc1,-1%,/
C/C(N)=C(/C#N)C(=O)CSc1nc2ccccc2c(=O)n1Cc1ccc(C)cc1,?,-30%
O=C(N1CCC(n2nc(-c3ccccc3)oc2=O)CC1)C1(c2ccccc2)CC1,-17%,i
CN(C)c1ccc(/C=C2\C(=O)Nc3ccccc32)cc1,-19%&-17%,-12%&-18%
Cc1ccc(-n2nc3c(=O)n(C(C)C(=O)NCc4ccccc4C)nc(C)c3c2C)cc1 (stereo not given),-16%,-4%
CN(CC(=O)Nc1ccccc1Cl)C(=O)COC(=O)Cc1ccc(F)cc1,0%,-10%
CCC(C)(C)NC(=O)CN(Cc1ccc(OC)cc1)C(=O)CCC(=O)Nc1nccs1,1%,-6%
O=C(CSCc1ccc(Cl)cc1)Nc1ccc2c(c1)OCO2,-1%,-14%
CN(C)N1C(N)=C(C#N)C(c2cccc([N+](=O)[O-])c2)C2=C1CC(C)(C)CC2=O (stereo not given),-9%,-8%
COc1ccc(N2CCN(C(=O)CSc3nnc4c(C)cc5ccccc5n34)CC2)cc1,-28%,-18%
CCOc1ccc(/C(O)=C2/C(=O)C(=O)N(c3ccccn3)C2c2ccc(F)cc2)c(C)c1 (stereo not given),-19%,-6%
O=C(NC1CCCCC1)c1cc(F)cc2c1OCOC2,-9%,i
CC(C)C[C@@H](CSc1ccc(Br)cc1)N1CCN(CCc2ccccc2)CCC1=O,-28%,?
COc1ccc(C(c2c(O)c3ccccc3oc2=O)c2c(C)n(C)n(-c3ccccc3)c2=O)cc1 (stereo not given),-1%&-9%,?
COCc1cc(=O)c2ccccc2o1,-5%,-14%
CN(C(=O)c1cc(COc2c(F)cccc2F)on1)C1CCOC1 (stereo not given),-21%,-20%
CC1(C)CC(=O)C(N=Nc2c(Cl)cc(Cl)cc2Cl)=C(O)C1,-9%,i

(continued)
SMILES	VACV Venus inh	VACV mCherry inh
N#Cc1cc(Oc2ccc(Cl)cc2)c(N2CCOCC2)cc1C#N	-11%	?
CN(C)S(=O)(=O)c1ccc(NC(=O)CN2CCN(c3ccccn3)CC2)cc1	-13%	-6%
CCCCn1c(N)c(N(CCOC)C(=O)COc2ccc(OCC)cc2)c(=O)[nH]c1=O	1%	-14%
C[C@@H]1CN([C@H](C)CO)C(=O)CCCn2cc(nn2)CO[C@H]1CN(C)S(=O)(=O)c1ccccc1C#N	-17%	-15%
Cc1occc1C(=O)NC(C)C12CC3CC(CC(C3)C1)C2 (stereo not given)	12%	i
O=C(O)CSC(C(=O)Nc1ccc(C(F)(F)F)cc1)c1ccccc1 (stereo not given)	-10%	-20%
COc1ccc(CN2CC(C(=O)NCCN3CCOCC3)CC2=O)cc1 (stereo not given)	-15%	-15%[1.46 µM]
C#CC1(O)CCC2C3CCC4=C(CCC(=O)C4)C3CCC21C (stereo not given)	-19%	-20%
COc1ccc(C(C)=O)cc1CN1C(=O)NC2(CCCCC2C)C1=O (stereo not given)	?	/
Cc1ccc(NC(=O)C2CCCN(S(=O)(=O)c3ccc4c(c3)oc(=O)n4C)C2)cc1Cl (stereo not given)	-10%	-14%
Cc1ccc(N2CC(C(=O)NCCC(C)C)CC2=O)cc1 (stereo not given)	-2%	-11%
O=C(NCCO)c1ccc2c3n(nc2c1)-c1ccc(Cl)cc1CO3	1%	13%
CC(C)(C)OC(=O)N1O[C@H]2CC1[C@@H]1[C@@H]2N=NN1CCc1ccncc1	-13%	i
COc1ccccc1C(O)c1ncc(-c2ccccc2C)[nH]1 (stereo not given)	0%	-4%
Cc1ccc(C(=O)NCCc2nnc3n2CCN(Cc2ccc4ccccc4c2)CC3)c(C)c1	-16%	i
CN1CCN(c2nc(C#N)cc(-c3ccccc3)n2)CC1	-24%	/
Cc1cccc(NC(=O)Nc2ccc(OCc3ccccc3)cc2)n1	-23%	-25%
COc1ccccc1N1CCN(CC(=O)Nc2ccc(CN3CCCCC3)cc2)CC1	-15%	-2%
CCCc1nc(SCc2ccccc2Cl)n[nH]1	-16%	-30%
COCCNC(=O)c1c(NC(=O)c2nc(SC)ncc2Cl)sc2c1CCCC2	-4%	-27%
CC(C)c1ccc(NC(=O)CCn2c(=O)c3cccn3c3ccccc32)cc1	3%	16%
Cc1ccc(N2CC(NS(=O)(=O)c3cc(F)ccc3F)CC2=O)cc1C (stereo not given)	-12%	0%
Cc1ccc(OCc2nnc(SC(C)C(=O)O)n2-c2ccccc2)cc1 (stereo not given)	-3%	i
O=C(CN1CCN(S(=O)(=O)c2ccc(F)cc2)CC1)Nc1cc(C(F)(F)F)ccc1Cl	-31%	/
CC1CN(C2CCCCC2)C(=S)N(c2ccccc2)C1=O (stereo not given)	-19%	-9%
CC1CCN(c2nnc(-c3ccccc3)c3ccccc23)CC1	?	?
FC(F)(Cl)c1nnc2ccc(Sc3ccccn3)nn12	-26%	-20%
Cc1ccc(NC(=O)C(C)OC(=O)c2ccc(NS(=O)(=O)c3ccc(F)c(F)c3)cc2)cc1 (stereo not given)	?	-15%
O=C(c1cccnc1)N1CCN(c2ccc3ccccc3n2)CC1	-15%	-12%
Cc1cc(=O)n2c3ccccc3n(CC(O)CN3CCN(CCO)CC3)c2c1C#N (stereo not given)	-15%	-12%
CC(C)Oc1cc(F)ccc1-c1cc(C(=O)NCc2ccccc2)[nH]n1	-27%	-7%
Cn1cnnc1Sc1cc(N2CCN(S(=O)(=O)c3ccc4ccccc4c3)CC2)ccc1[N+](=O)[O-]	?	?
CCOc1ccccc1NC(=O)c1nnn(CC(=O)Nc2ccc3c(c2)OCO3)c1N	?	-16%
Cc1occc1-c1nnc(SCC(=O)N2CCOCC2)n1CC(C)C	-11%	-10%
O=C(COc1ccccc1Cl)N1CCN(c2ccc(F)cc2)CC1	-12%	-19%
O=C(O)c1ccc(Cl)c(S(=O)(=O)Nc2ccc(S(=O)(=O)Nc3cccc(Cl)c3)cc2)c1	-5%	-7%
CCC(C)NC(=O)c1ccccc1NC(=O)CN1C(=O)c2ccccc2S1(=O)=O (stereo not given)	-12%	8%
C=CCn1c(O)c(C(C)=NCCC(c2ccccc2)c2ccccc2)c(=O)[nH]c1=O	1%	-10%
Cc1oc2ncnc(N3CCOCC3)c2c1C(=O)N1CCN(c2cccc(C(F)(F)F)c2)CC1	-11%	-15%
Cn1c(=O)[nH]c(=O)c2[nH]c(CN3CCN(Cc4ccccc4)CC3)nc21	1%	i

Given with values under each structure: part of the list above.
The line under a structure holds: VACV Venus inh	VACV mCherry inh
Cc1ccc(C(=O)Nc2ccc(C(F)(F)F)n(C)c2=O)cc1
  -4%	-16%
Cc1ccc(-n2ncc(-c3n[nH]c(=S)o3)c2N)cc1C
  -14%	-2%
S=c1[nH]nc(-c2cc(-c3ccccc3)n[nH]2)n1/N=C/c1ccc(Cl)c(Cl)c1
  -10%	i
CCC(c1nnc(SCC(=O)Nc2ccc(S(N)(=O)=O)cc2)n1Cc1ccccc1)N(C)C (stereo not given)
  -9%	i
S=C(Nc1cccnc1)Nc1ccccn1
  -14%	i

Carrying on.
SMILES	VACV Venus inh	VACV mCherry inh
CC1(c2cccc(Br)c2)NC(=O)N(CC(=O)Nc2ccc(S(N)(=O)=O)cc2)C1=O (stereo not given)	13%	-15%
CC(=O)NC(=S)Nc1ccccc1C(=O)Nc1ccccc1	-3%	-14%
N#CCOc1ccccc1CNC[C@H]1O[C@@H](n2cnc3c(=O)[nH]c(N)nc32)[C@H](O)[C@@H]1O	9%	5%
CCCCCCCCCCOC(=O)Cn1c(COc2ccccc2OC)[n+](C)c2ccccc21	14µM*	?
COCCNc1ncnc2c1ncn2[C@H]1CN(CCOC)C[C@@H](CO)O1	-2%	1%
CSCCC(NC(N)=O)C(=O)Nc1cccc(S(=O)(=O)N2CCOCC2)c1 (stereo not given)	0%	0%
Cc1nc2nc(NC(=O)c3ccc(C(C)(C)C)cc3)[nH]n2c(=O)c1C	-14%	i
Cn1c(SCc2ccc(F)cc2)nc2ccc(C(=O)NCc3cccc(Cl)c3)cc21	-27%	?
CCOc1cccc(OCCOCCn2cnc3ccccc3c2=O)c1	-16%	-13%
O=C(Cc1ccc(Cl)cc1)c1ccccc1	-7%	-2%
COc1cccc(CNC(=O)c2c(OC)cc(=O)n3c2CCN(C(=O)c2ccccc2Cl)CC3)c1	-8%	i
COc1ccc(C(=O)Nc2ccc3oc(-c4cccnc4)nc3c2)cc1OC	-12%	-19%
O=C(CSc1nnc(-c2ccccc2)o1)N1CCCC1	-7%	i
CCOc1ccc(/C=C2\SC(=S)N(NC(=O)c3ccncc3)C2=O)cc1OC	17%	-9%
O=C(OCC(=O)N1CCCC1)c1cncc(Br)c1	-15%	/
CC(C)c1cnc2c(c1SCC(=O)c1ccccc1)c(=O)n(C)c(=O)n2C	-15%	-19%
Cc1cc(C)c(C#N)c(SCS(=O)Cc2ccc(Cl)cc2)n1 (stereo not given)	0%	-19%
CCOc1ccc(CCNC(=O)c2ccc(Cl)c(S(=O)(=O)N3CCOCC3)c2)cc1OCC	-12%	i
S=c1[nH]nc(COc2ccccc2)n1/N=C/c1cccc(Br)c1	-12%	-3%
Cc1ccccc1N1CCN(C(=O)c2ccccc2NC(=O)c2ccccc2C(=O)O)CC1	-12%	-7%
CCC(C(=O)NCC1CCCO1)N(Cc1ccc(F)cc1)C(=O)CNS(=O)(=O)c1ccccc1 (stereo not given)	-7%	-19%
Cn1nnnc1SCCCNCc1cc(Cl)ccc1OCc1ccc(F)cc1	-27%	-7%
O=S(=O)(CCOc1ccccc1)N1CCOCC1	-22%	-31%
